Assay outcomes: PubChem, several laboratories
ALR H2O2 inh – inhibitors of human ALR sulfhydryl oxidase, primary screen, biochemical, H2O2 detection, HRP-luminol luminescence, single point; inhibition, % (concentration not given with the values); purified ALR, DTT oxidation; FAD-linked sulfhydryl oxidase ALR (Homo sapiens), P55789; AID 485317, 2010; hit rate 3.8% among 290,000;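 active = mean and each replicate at 75% or more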;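 also: stock transfer was 7.5 nL into about 7.5 µL; 0% = neutral wells and 100% = wells with inactivated enzyme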
E coli growth – E. coli growth inhibition, primary screen, OD600. Escherichia coli growth, 23 h; hits give low values. OD600 absorbance (test concentration not listed). hit rate 0.21% among 330,000;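 active = OD600 absorbance below the run mean of sample wells minus 3.6 SD, in any replicate, cut at about 0.56 in these data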;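 also: stock transfer was 300 nL into about 60 µL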
Beta2AR agonist – beta2AR agonists driving receptor internalization, primary screen, cell-based, FAP fluorogen, flow cytometry; Am2.2-beta2AR cells; reference of the scale not given here; response, % (concentration not given with the values); Beta-2 adrenergic receptor (Homo sapiens), P07550; hit rate 0.43% among 340,000; AID 504454, 2011;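 active = response above a set limit, near 3 SD of response in nonfluorescent compounds, cut at about 42% in these data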;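 also: stock transfer was 100 nL into about 11 µL; a reference agonist was the positive control; negative values mostly stem from fluorescent compounds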
FGF22 binding – binders of human FGF22 protein, primary screen, FGF22 synaptogenesis inhibitor project, biophysical, thermal shift, single point | Fibroblast growth factor 22 (Homo sapiens), Q9HCT0 | recombinant FGF22 thermal shift, SYPRO orange fluorescence; percent of sucrose octasulfate shift, DMSO zero | calls only at 9.99 µM | hit rate 1.5% among 340,000;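 active = melting point raised past a set limit in the mean and every replicate; three in four hits are not shown here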
LANA-H2B inh – blockers of LANA interaction with H2A/H2B – biochemical, FP readout, HTS, primary screen. Protein LANA1 (Human herpesvirus 8 type P (isolate GK18)), Q9QR71. cell-free LANA-H2A/H2B peptide, fluorescence polarization. inhibition, % (concentration not given with the values). hit rate 0.6% among 320,000; in the data active = inhibition mostly above about 10%, no sharp cut-off; inactive = mostly below about 6.7%;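 also: stock transfer was 7.5 nL into about 10 µL; 0% = median of vehicle wells and 100% = median of positive control wells; one replicate is shown; the record names a cut of 25% in any replicate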
Target sequence (Q9QR71 whole entry, looked up): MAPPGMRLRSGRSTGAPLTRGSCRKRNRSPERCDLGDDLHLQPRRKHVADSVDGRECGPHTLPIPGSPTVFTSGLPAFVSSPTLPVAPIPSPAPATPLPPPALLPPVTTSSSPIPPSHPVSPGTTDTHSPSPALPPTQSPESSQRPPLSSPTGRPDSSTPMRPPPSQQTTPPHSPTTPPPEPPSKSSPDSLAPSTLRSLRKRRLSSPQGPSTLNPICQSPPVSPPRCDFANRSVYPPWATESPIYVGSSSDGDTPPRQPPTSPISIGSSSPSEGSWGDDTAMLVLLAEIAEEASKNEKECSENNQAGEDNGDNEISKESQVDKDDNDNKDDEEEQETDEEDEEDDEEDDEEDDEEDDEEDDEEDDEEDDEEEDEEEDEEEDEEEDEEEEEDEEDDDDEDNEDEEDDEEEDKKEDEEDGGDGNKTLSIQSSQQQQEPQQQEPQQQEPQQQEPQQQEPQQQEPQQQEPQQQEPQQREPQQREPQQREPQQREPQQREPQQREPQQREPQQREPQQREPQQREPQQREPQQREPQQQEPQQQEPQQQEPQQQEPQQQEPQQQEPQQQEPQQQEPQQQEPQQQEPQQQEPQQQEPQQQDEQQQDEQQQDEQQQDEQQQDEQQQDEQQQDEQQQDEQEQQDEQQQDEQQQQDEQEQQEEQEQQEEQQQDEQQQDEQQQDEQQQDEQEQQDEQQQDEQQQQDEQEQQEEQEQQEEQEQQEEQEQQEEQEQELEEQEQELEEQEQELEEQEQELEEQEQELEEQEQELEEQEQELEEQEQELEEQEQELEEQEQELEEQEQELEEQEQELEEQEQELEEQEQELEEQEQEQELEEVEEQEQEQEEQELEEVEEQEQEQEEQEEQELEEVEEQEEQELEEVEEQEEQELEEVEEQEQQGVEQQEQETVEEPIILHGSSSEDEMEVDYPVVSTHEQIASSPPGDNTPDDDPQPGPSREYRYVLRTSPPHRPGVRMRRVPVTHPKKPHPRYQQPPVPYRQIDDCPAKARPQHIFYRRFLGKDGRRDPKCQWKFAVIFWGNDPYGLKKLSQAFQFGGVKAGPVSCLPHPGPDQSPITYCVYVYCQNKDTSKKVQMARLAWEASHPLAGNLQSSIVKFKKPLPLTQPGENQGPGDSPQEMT
UCH37 DUB inh – inhibitors of human UCH37 deubiquitinase, primary screen, biochemical, Ub-AMC cleavage, fluorescence; Ubiquitin carboxyl-terminal hydrolase isozyme L5 (Homo sapiens), Q9Y5K5; hit rate 0.33% among 330,000; purified proteasome/UCH37; inhibition, % (concentration not given with the values);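 active = mean of two replicates above 20%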;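 also: 0% = compound-free wells with enzyme and 100% = wells lacking proteasome; stock transfer was 100 nL into about 20 µL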
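Material: Human UCH37 enzyme supplied as purified proteasome complex | Schedule: 30 min compound-proteasome preincubation then 25 min substrate reaction, room temperature | Detection: AMC fluorescence from Ub-AMC cleavage, excitation 355 nm, emission 460 nm | Benchmarks: Wells without proteasome as full block, compound-free enzyme plus substrate as uninhibited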
HNF4A DNA FP – change in binding of human HNF4A to DNA, primary screen, biochemical, fluorescence polarization, FITC-DNA | Hepatocyte nuclear factor 4-alpha (Homo sapiens), P41235 | 1 h | activity change, % at 10 µM | hit rate 0.3% among 360,000 | AID 1224865, 2016; in the data active = activity change above about 30%, passing the limit was not always enough;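 also: controls were the assay level and a saturating level of protein; the project sought stronger binding though the title names inhibitors; some compounds called inactive have numbers as strong as hits; positive values seem to mean higher polarization but the record does not say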
* marks the source's active call; other numbers are inactive results; i = inactive; x = not tested or not shown; & = joins results of further samples.

SMILES | ALR H2O2 inh | E coli growth | LANA-H2B inh | Beta2AR agonist | UCH37 DUB inh | HNF4A DNA FP | FGF22 binding
O=C(COC(=O)c1cc[n+]([O-])cc1)Nc1ccccc1Cl | 9 | 0.67 | 3.9 | -6 | 4.3 | 0.8 | i
Cc1ccc(CSc2nnc3ccc(-c4ccncc4)nn23)cc1 | -5 | 0.68 | -0.4 | -2 | 6.2 | 0.1 | i
Cc1cc(SCC(=O)Nc2ccccc2C)nc(C)n1 | -19 | 0.63 | -1.6 | -1 | -0.1 | 0.9 | x
O=C(C1CC1)n1cc(C(=S)N2CCOCC2)c2ccccc21 | -7 | 0.68 | 0.1 | -10 | 1.4 | -0.5 | x
O=C(c1ccccc1[N+](=O)[O-])N1CC2C3C=CC(C3)C2C1 (centres undefined) | -9 | 0.68 | -8.6 | 1 | 3.3 | -1.3 | i
COc1cccc(CN(C)Cc2nc(Cc3ccccc3Cl)no2)c1 | 0 | 0.67 | -2.6 | 3 | 0.5 | 1.9 | i
CCOC(=O)c1ccccc1NC(=O)COC(=O)CCC(=O)c1ccccc1 | 1 | 0.65 | -2.5 | 1 | 3.7 | -4.9 | i
CCOc1ccc(NC(=O)CCC(=O)NNS(=O)(=O)c2ccccc2[N+](=O)[O-])cc1 | -9 | x | 6.6 | -1 | x | 4.8 | i
CCC(=O)Nc1cccc(NC(=O)c2ccc3c(c2)OCCO3)c1 | 2 | 0.62 | 2.6 | -3 | 1.4 | -0.8 | x
COc1cccc(CN(C)CC(=O)NCc2ccc(F)cc2)c1OC | 4 | 0.66 | -0.3 | -9 | 3.8 | 0.2 | i
O=C(O)C1CSC2(c3ccc(F)cc3)CCC(=O)N12 (centres undefined) | 10 | 0.72 | 0.3 | 11 | 4.4 | 1.4 | i
Cc1ccc(C)c(Cn2nnc3c(=O)[nH]c(C(=O)NCC4CCCO4)nc32)c1 (centres undefined) | 62 | 0.67 | -1.9 | 2 | 1.6 | -4.7 | x
CCOc1ccc(C(C)(C)C)cc1S(=O)(=O)N1CCOCC1 | -6 | 0.73 | 5.2 | -6 | 1.9 | -2.8 | x
CCCN(CCC)CCNC(=O)C1CCN(S(=O)(=O)c2cccc3nsnc23)CC1 | 5 | 0.67 | 1.8 | 3 | 3.6 | 4.4 | i
O=C(Nc1ccc(F)cc1F)NC1CCCCCCC1 | -3 | 0.69 | 2.5 | -10 | 0.6 | 1.7 | i
COc1ccccc1/C=N/NC(=O)Cn1cnc([N+](=O)[O-])n1 | -17 | x | -2.8 | -1 | x | -5.6 | i
CCOC(=O)Cc1nnc(NC(=O)c2ccco2)s1 | 4 | 0.7 | 0.0 | -11 | 3.0 | -2.5 | x
Cc1nn2c3ccccc3n(C)c2nc1=O | -1 | 0.8 | 5.0 | -5 | -9.6 | -0.7 | x
COc1ccc(OCCCn2c(=O)oc3ccccc32)cc1 | -1 | 0.69 | 1.6 | -11 | 0.1 | -0.8 | x
COc1ccccc1NC(=O)N(CCN(C)C)Cc1cc2cc(C)ccc2[nH]c1=O | -19 | 0.72 | 0.1 | -4 | -1.6 | 3.2 | x
O=C(Cn1c(=O)oc2cc(S(=O)(=O)N3CCCC3)ccc21)N1CCN(c2ccccc2)CC1 | 6 | 0.73 | -3.1 | 4 | 4.1 | 0.2 | i
O=C(NC1CCCC1)C(c1cccnc1)N(C(=O)c1csnn1)C1CCCC1 (centres undefined) | -2 | 0.68 | 1.6 | 8 | 0.9 | 4.3 | x
NC(=O)NC(=O)COC(=O)[C@H](Cc1ccccc1)NC(=O)c1cccs1 | x | 0.7 | 3.9 | 5 | 2.0 | 1.6 | i
CCOCCCNC(=O)c1ccc(Cn2c(=O)[nH]c3ccsc3c2=O)cc1 | -6 | 0.71 | 2.5 | 6 | -0.1 | 0.1 | i
Cc1cccc(NC(=O)c2ccc(S(=O)(=O)N(C)C)cc2)c1 | -2 | 0.58 | 2.8 | 13 | 2.6 | -2.4 | i
CCN=C1NN=C(c2cc(C)n(CCc3ccccc3)c2C)CS1 | x | 0.69 | x | 10 | 4.5 | 3.7 | i
Clc1nssc1=Nc1ccccc1 | x | 0.68 | x | 2 | 1.9 | 1.6 | x
Cc1cc(C2(c3ccc(O)c(C)c3)C(=O)N(C)c3ccc(Br)cc32)ccc1O | 13 | 0.61 | 3.8 | 3 | 9.3 | 3.9 | i
CC(NC(=O)CCN1C(=O)c2ccccc2C1=O)c1ccc2c(c1)CCCC2 (centres undefined) | -1 | 0.72 | -0.4 | -13 | 1.3 | 4.6 | i
COCCNC(=O)c1cc(Br)ccc1Cl | -26 | 0.73 | 2.8 | 7 | 4.3 | -1.0 | x
COc1ccc(OC)c(NC(=O)CSc2nn3c(=O)c(C)nnc3s2)c1 | 86* | 0.7 | 1.4 | -3 | 7.9 | 2.4 | i
CCOC(=O)/C(=N\Nc1ccccc1[N+](=O)[O-])c1csc(N)n1 | -1 | x | 0.5 | -6 | x | -0.9 | i
C/C(=N/NC(=O)c1ccc(C)s1)c1cccc(NC(=O)c2ccoc2C)c1 | -3 | x | -0.9 | 10 | x | 0.4 | i
CC1CCCCN1S(=O)(=O)c1coc(C(N)=O)c1 (centres undefined) | -6 | 0.74 | -2.0 | 3 | 0.4 | -2.1 | i
Cc1cc(=O)oc2c1ccc1oc(/C(=N/O)c3ccccc3)c(C)c12 | -30 | x | 0.3 | 12 | x | -0.6 | x
COc1cc(C(=O)NCCN2C(=O)S/C(=C\c3cccs3)C2=O)cc(OC)c1OC | -18 | 0.71 | -0.8 | -6 | 8.1 | -5.7 | i
CCOc1ccc(S(=O)(=O)NCCN2CCOCC2)c2ccccc12 | -13 | 0.62 | -4.0 | -4 | 2.6 | 3.1 | x
CC(C)C(NS(=O)(=O)c1cccc(C(F)(F)F)c1)C(=O)O (centres undefined) | -6 | 0.71 | 0.6 | 5 | 1.0 | 0.1 | i
Cc1cc2c(=O)n(CC(=O)N3CCN(c4ccc(F)cc4)CC3)cnc2s1 | 12 | 0.77 | 6.5 | 1 | 3.4 | -2.6 | x
Cc1csc(CNc2ncnc3ccc(-c4cccc(Cl)c4)cc23)c1 | 1 | 0.7 | 0.3 | 17 | -0.4 | -1.8 | i
CCNc1nc(NCC)n2c(SCC(=O)Nc3ccc(C(F)(F)F)cc3[N+](=O)[O-])nnc2n1 | 2 | 0.68 | 2.1 | 3 | 2.0 | -1.3 | x
COc1cc(OC)c(C2Oc3nc(SC)nnc3-c3ccccc3N2C(C)=O)cc1OC (centres undefined) | -19 | 0.73 | -0.5 | 0 | 8.5 | 2.8 | i
CCCC(=O)N1CCN(c2ccc(NC(=O)c3ccc4c(c3)OCCO4)cc2)CC1 | -4 | 0.68 | 0.3 | 2 | -0.9 | -2.0 | i
Cc1ccc(/C=N/NC(=O)Cc2ccc(O)cc2)s1 | 61 | x | -3.5 | 5 | x | 4.5 | i
CCN(CC)Cc1cc(C(C)(C)C)cc(N2CCOCC2)c1O | x | 0.68 | x | -9 | 2.6 | -2.8 | i
CCCSc1nc(SCC(=O)NCc2ccccc2)c2c3c(sc2n1)COC(C)(C)C3 | -21 | 0.7 | -1.4 | -1 | -3.8 | -0.4 | x
COC(=O)[C@]1(C)N[C@H](CN(C)C(=O)Nc2ccc(Cl)cc2)[C@@H]2C(=O)N(C)C(=O)[C@@H]21 | 1 | 0.71 | x | 8 | 0.3 | 0.0 | i
CC(C)CN(Cc1c(O)ccc2ccccc12)CC(C)C | 5 | x | 5.4 | 9 | -8.7 | -0.8 | i
Cc1ccc(S(=O)(=O)N2CCN(C(=O)COC(=O)COc3ccccc3)CC2)cc1 | -10 | 0.71 | 4.0 | 7 | -0.3 | 2.2 | x
O=c1[nH]c(/C=C/c2ccc(OC(F)F)cc2)nc2c1cnn2-c1ccccc1 | -2 | 0.68 | 1.5 | -7 | -24 | -3.9 | x
NC(=O)CCCC1=NS(=O)(=O)c2ccccc2N1 | -5 | 0.68 | -1.1 | 3 | 4.0 | -1.5 | x
Cc1cccc(C)c1NC(=O)CNC(=O)c1ccc(COc2ccccc2)cc1 | -11 | 0.67 | x | -2 | 3.5 | -1.1 | i
CC(NS(=O)(=O)c1ccc(CCC(=O)NCC2CCCO2)cc1)c1ccccc1 (centres undefined) | 0 | 0.75 | -1.1 | 1 | 5.2 | -4.2 | x
O=c1[nH]c(Nc2ccc3c(c2)OCCO3)nnc1Cc1ccc(Cl)cc1 | -1 | 0.66 | 3.1 | -3 | 1.5 | -1.4 | i
CCOc1ccccc1N(CC(=O)NCCSc1ccccn1)S(=O)(=O)c1ccccc1 | -5 | 0.69 | 1.0 | 5 | 0.5 | 2.5 | i
C=CCn1cc(C(=O)N2CCN(C)CC2)c(=O)c2cc(S(=O)(=O)N(CC)CC)ccc21 | -3 | 0.69 | -9.3 | 1 | 8.4 | 5.8 | i

The list goes on.
SMILES | ALR H2O2 inh | E coli growth | LANA-H2B inh | Beta2AR agonist | UCH37 DUB inh | HNF4A DNA FP | FGF22 binding
COc1ccc(C(=O)Nc2ccc(S(=O)(=O)NC(C)(C)C)cc2)cc1[N+](=O)[O-] | -2 | 0.64 | 11 | 7 | 1.9 | -4.8 | i
O=C(CCc1nnc(CCCCc2ccccc2)o1)NCCC1CCCCO1 (centres undefined) | 3 | 0.66 | -1.8 | -6 | 1.9 | -1.2 | i
C=CCn1c(SCC(=O)NC(=O)Cc2ccccc2)nnc1-c1ccccc1F | -4 | 0.67 | 6.2 | -8 | 2.2 | 0.9 | i
CC12CCC(C(=O)O)(C/C1=N\O)C2(C)C (centres undefined) | -18&-8 | x | 7.9&-4.3 | 13&4 | x | 1.9&2.5 | x
COc1ccc(-n2cnnc2SCC(=O)Nc2cccc(S(=O)(=O)N3CCCCC3)c2)cc1 | -5 | 0.68 | 1.3 | 10 | 1.9 | -1.7 | i
O=C(Nc1ccc(F)cc1F)N1CCN(CCc2ccccc2)CC1 | -9 | 0.66 | -3.0 | -3 | 4.8 | -1.1 | i
O=C(OCC(=O)N1CCN(C(=O)c2ccco2)CC1)c1ccc(S(=O)(=O)N2CCCCC2)cc1 | -1 | 0.74 | 8.5 | 0 | -4.9 | 50* | x
Cc1snc(SCC(=O)N/N=C(\N)COc2ccc(F)cc2)c1C#N | 0 | x | 0.0 | 3 | x | 0.4 | x

Taken from the results shown for reference:
SMILES | ALR H2O2 inh | E coli growth | LANA-H2B inh | Beta2AR agonist | UCH37 DUB inh | HNF4A DNA FP | FGF22 binding
COc1ccc(-n2cnnc2SCC(=O)Nc2cccc(S(=O)(=O)N3CCCCC3)c2)cc1 | -5 | 0.68 | 1.3 | 10 | 1.9 | -1.7 | i
O=C(Nc1ccc(F)cc1F)N1CCN(CCc2ccccc2)CC1 | -9 | 0.66 | -3.0 | -3 | 4.8 | -1.1 | i

Later entries.
SMILES | ALR H2O2 inh | E coli growth | LANA-H2B inh | Beta2AR agonist | UCH37 DUB inh | HNF4A DNA FP | FGF22 binding
O=C(Nc1ccc(Cl)c(C(F)(F)F)c1)[C@@H]1CC=C[C@@H]2CCN(Cc3ccc(Cl)c(Cl)c3)C(=O)[C@@H]21 | -7 | x | -4.5 | -1 | 0.5 | -4.8 | i
COc1ccc([C@@H]2CC=C(C(=O)O)[C@H](c3ccccc3)N2S(=O)(=O)c2ccccc2C)cc1 | 5 | x | -2.6 | -4 | 3.0 | -1.2 | i
COC(=O)CSc1nnc(-c2ccccn2)n1Cc1ccco1 | 4 | 0.71 | 6.4 | -5 | 4.4 | -2.3 | i
Cc1nnsc1C(=O)N1CCCC(N2CCN(c3ccc(F)cc3)CC2)C1 (centres undefined) | 48 | 0.74 | -2.3 | -3 | 2.6 | -0.1 | i

An excerpt, so the mix of outcomes need not match the whole.
